Screening data from PubChem.
miR-21 FLuc: miR-21 reporter, rising signal; HeLa miR-21 FLuc reporter, luciferase, 48 h; AID 2288; Potency, µM (top dose mostly 38.3 µM), for inactives: at the top dose reporter change, positive = more light; 340,000 tested, under 10 active; active = well fitted rising curve with a large enough effect; inconclusive = small, poorly fitted or top-dose-only effect; inactive = no such curve, though single readings can be large or run the other way;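 note: % of control where 0% means no effect; miR-21 action dims this reporter so a rising signal means less miR-21 action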
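HeLa miR-21-FLuc reporter line, endogenous miR-21; 2000 cells/well in DMEM/10% FBS; compound titration up to ~40uM final, 48 h, 37 degree Celsius; luciferase detection reagent, 15 min lysis, CCD luminescence.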
GLA inh pH 4.5: alpha-galactosidase A (human) inhibition, pH 4.5. P06280. 230,000 tested, under 10 active. purified enzyme, 4-MU-alpha-Gal fluorescence, pH 4.5. activity change, negative = inhibition, % at 105 µM; inconclusive = small, poorly fitted or top-dose-only inhibition, or a rising curve; inactive = flat fitted curve, though single readings scatter; no compound was filed as active;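 note: 0% = full activity with enzyme and -100% = basal without enzyme; dose as in the result columns while the protocol names 77 µM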
Rango dissoc inh: prevents RanGTP from dissociating the Rango-importin beta complex | O95149+P62826 | Biochemical FRET Rango-importin beta, RanGTP-induced dissociation | Potency, µM (highest dose often 46.1 µM), inactives show top-dose activity change, negative = inhibition | actives 0.071% (n = 340,000); active means falling FRET ratio curve, often poorly fitted, with flat reads before Ran was added; inconclusive means other falling curves, or compound fluorescence or quenching; inactive means flat or rising ratio curve;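 note: potency is the fitted concentration of half-maximal effect; % of control where 0% means no effect; nearly all actives have a fitted effect of over 45% in size; -100% = wells without RanGTP and RCC1; the record marks most hits as doubtful in a second field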
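Rango/importin beta premix (0.1/0.25 uM final), PBS + 1 mM DTT + 0.02% Tween-20 + 0.1% BSA; cpd 5 min RT; FRET pre-read; + RanGTP-RCC1 (0.6 uM Ran, 2 mM GTP, 0.2 uM RCC1); 45 min RT; FRET post-read, ex 430, em 486/530 nm.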
Rango-impB inh: Rango-importin beta binding inhibition; Q14974; Rango CFP/YFP FRET sensor + importin beta, 45 min; Potency, µM (doses to about 92.2 µM), without a hit: at the highest dose inhibition of complex formation; actives 0.031% (n = 340,000); AID 540263; active = rising FRET ratio curve, often small or poorly fitted; inconclusive = mostly compound fluorescence or quenching in the first reads; inactive = flat curves in all reads;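 note: potency is the fitted concentration of half-maximal effect; 0% = DMSO wells and 100% = buffer wells lacking importin beta; nearly all actives have a fitted effect of over 15% in size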
Target sequence (Q14974 whole entry, looked up): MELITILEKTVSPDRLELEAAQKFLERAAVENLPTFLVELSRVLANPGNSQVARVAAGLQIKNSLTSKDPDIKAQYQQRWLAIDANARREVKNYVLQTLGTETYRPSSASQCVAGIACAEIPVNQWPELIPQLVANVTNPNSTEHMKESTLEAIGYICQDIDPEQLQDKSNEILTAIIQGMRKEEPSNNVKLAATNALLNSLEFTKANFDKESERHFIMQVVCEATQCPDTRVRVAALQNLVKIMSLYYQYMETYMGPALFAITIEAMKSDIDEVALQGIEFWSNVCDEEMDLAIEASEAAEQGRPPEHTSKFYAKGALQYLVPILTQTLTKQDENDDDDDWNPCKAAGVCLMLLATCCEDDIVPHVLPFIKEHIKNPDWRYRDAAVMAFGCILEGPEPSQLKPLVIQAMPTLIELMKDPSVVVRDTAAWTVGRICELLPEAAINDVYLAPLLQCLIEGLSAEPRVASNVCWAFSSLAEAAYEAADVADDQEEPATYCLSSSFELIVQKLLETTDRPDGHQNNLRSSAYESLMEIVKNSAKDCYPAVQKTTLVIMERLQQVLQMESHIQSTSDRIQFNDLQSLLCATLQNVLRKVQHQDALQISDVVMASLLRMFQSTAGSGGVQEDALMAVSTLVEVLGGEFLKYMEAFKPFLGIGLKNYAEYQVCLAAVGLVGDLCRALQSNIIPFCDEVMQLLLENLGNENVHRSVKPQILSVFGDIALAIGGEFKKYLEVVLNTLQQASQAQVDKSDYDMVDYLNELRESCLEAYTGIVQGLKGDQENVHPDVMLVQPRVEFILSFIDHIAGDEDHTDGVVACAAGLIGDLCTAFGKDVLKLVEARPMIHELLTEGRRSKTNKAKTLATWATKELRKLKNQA
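FRET biosensor Rango (snurportin 1 IBB between N-terminal EYFP and C-terminal Cerulean), 50 nM in PBS/1 mM DTT/0.02% Tween-20/0.1% BSA, preincubated 5 min RT with compound; 0.125 microM importin beta added, 45 min RT, CFP/YFP FRET ratio read.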
The depositor's hits bear a star; ? = inconclusive; nt = no result given; & = joins results of further samples. Not all compounds are listed; the hit share may differ from the screen's.

Below each compound: GLA inh pH 4.5, miR-21 FLuc, Rango-impB inh, Rango dissoc inh
> Cc1ccc(C)c(NC(=O)CN(C)C(=O)CSC(C)C(=O)Nc2cc(C)on2)c1 (configuration not stated)
    nt, -9%, -0.7%, 10%
> COc1cccc(CNC(=O)COC(=O)c2cc([N+](=O)[O-])ccc2N2CCCC2)c1
    nt, nt, -0.7%, 7%
> O=C(NCC(=O)N(CCN1CCOCC1)C(C(=O)NC1CCCC1)c1cccnc1)c1cccs1 (configuration not stated)
    0, -1%, -2.5%, 23%
> CCCCn1c(O)c(N=NC(=O)c2ccccc2NS(=O)(=O)c2cccs2)c2ccccc21
    -9, 0%, 0.8%, 0%
> O=C(CCNS(=O)(=O)/C=C/c1ccccc1)NCCc1c[nH]c2ccccc12
    nt, 8%, -0.6%, -8%
> Cc1c(C(=O)N2CCN(c3ccccn3)CC2)sc2ncnc(N3CCN(c4ccccc4)CC3)c12
    nt, nt, 2.7%, 18%
> CCN(CC)S(=O)(=O)c1ccc(NC(=O)CSc2nnc(-c3cccc(OC)c3)n2C)cc1
    8, 1%, 0.5%, -4%
> O=S(=O)(c1ccc(Br)cc1)N1CCCC1
    nt, -1%, -2.8%, 0%
> O=C(NC(=S)Nc1ccccc1)c1ccc(-c2ccccc2)cc1
    -2, -36%, -1.6%, -18%
> O=C(Cc1ccc(Cl)cc1)NCC(=O)N1CCCC1
    5, -6%, -0.1%, -3%
> COc1ccc(/C=C/C(=O)NC(=S)N2CCCCC2)cc1OC
    nt, -6%, 2.6%, 6%
> Cc1ccc(S(=O)(=O)N2CCCC(C(=O)NC3CC3)C2)cc1 (configuration not stated)
    nt, 0%, -0.2%, 0%
> Cc1c(NC(=S)N/N=C/c2cccc(O)c2)c(=O)n(-c2ccccc2)n1C
    -5, -5%, -1.5%, 18%
> COc1cc(C(=O)Nc2cc(C)c(OCC(=O)N3CCOCC3)c(C)c2)cc(OC)c1OC
    -8, 5%, 0.2%, -19%
> CC1CCCCC1NC(=O)COC(=O)c1cc(=O)[nH]c2ccccc12 (configuration not stated)
    nt, nt, 0.4%, -7%

Remaining list, next part:
Below each compound: GLA inh pH 4.5, miR-21 FLuc, Rango-impB inh, Rango dissoc inh
> Cc1ccc(CN2CCC(Oc3cccc(C(=O)N(C)CCN(C)C)c3)CC2)cc1C
    nt, -12%, 0.2%, -4%
> CCn1c2ccccc2c2cc(CNCCCN3CCOCC3)ccc21
    nt, 0%, -3.0%, 16%
> Cc1cc(C)n(C(C[N+](=O)[O-])c2ccc(Cl)cc2)n1 (configuration not stated)
    -3, 8%, 3.0%, -3%
> CN1/C(=C\C(=O)CSc2cccc[n+]2[O-])C(C)(C)c2ccccc21
    -1, 5%, -1.8%, -16%
> Cn1c(SCC(=O)Nc2nccs2)nnc1C12CC3CC(CC(C3)C1)C2
    5, -19%, 3.1%, 11%
> CCOC(=O)c1ccc(NC(=O)Nc2ncccc2C)cc1
    -1, -16%, 1.5%, -8%
> COc1ccc2nc(C(C)O)[nH]c2c1 (configuration not stated)
    2, -2%, 1.7%, -1%
> COc1ccc(C2CCCN2C(=O)Nc2cccc(C(C)=O)c2)cc1OC (configuration not stated)
    3, -9%, 1.0%, -14%
> CCOc1ccccc1C(=O)NCC(=O)N1CCN(Cc2ccc3c(c2)OCO3)CC1
    nt, nt, 1.2%, -16%
> CCCCNC(=O)c1sc(=S)n(-c2ccccc2OC)c1N
    -5, -10%, -0.5%, 8%
> Nc1ccc(OCC(O)C[n+]2ccc(CCS(=O)(=O)[O-])cc2)cc1 (configuration not stated)
    6, 0%, 11%, 14%
> CCCNC(=O)C(Cc1ccc(Br)cc1)NC(=O)c1ccc(C#N)cc1 (configuration not stated)
    nt, nt, -0.4%, -4%
> COc1ccc(C(=O)c2c(N)sc3c2CCN(C(=O)OC(C)(C)C)C3)cc1
    -1, 8%, -2.4%, -1%
> CC(/C=N\NC(=O)Cn1c(C)nc2ccccc21)=C\c1ccccc1
    -14, 9%, 2.4%, -11%
> CCCNC(=O)c1ccc2c(=O)c(O)c(-c3ccc(C)cc3)[nH]c2c1
    -6, ?, ?, ?

Remaining list, next part
Below each compound: GLA inh pH 4.5, miR-21 FLuc, Rango-impB inh, Rango dissoc inh
> NC(=O)COc1ncn(-c2ccccc2)n1
    2, 3%, 0.6%, -11%
> C=CCCN(C(CC(C)C)C(=O)OC)S(=O)(=O)c1cc(Br)ccc1Br (configuration not stated)
    0, -1%, 1.8%, 3%
> CC(=O)Nc1ccc(S(=O)(=O)N2CCC(C(=O)NCc3ccco3)CC2)cc1
    nt, -2%, -0.6%, -16%
> COCCn1c(SCC(=O)Nc2ccc(Cl)cn2)nc2ccccc21
    4, -4%, -0.8%, -4%
> C#CCOCCOCCOCCNc1nc(N2CCOCC2)nc(N2CCN(C(=O)[C@H](C)n3cc(CCCN=C(N)N)nn3)CC2)n1
    1, -1%, 0.0%, 1%
> OCCC1CN(Cc2nc3c(s2)CCCC3)CCN1Cc1ccccc1 (configuration not stated)
    2, -3%, -4.5%, ?
> Cc1ccc(NC(=O)CSc2nnc(CCCCCNC(=O)OC(C)(C)C)o2)c(C)c1
    1, 4%, 1.8%, 6%
> CCN(CCO)Cc1csc2cccc(Br)c12
    4, 1%, 0.6%, -15%
> COc1cc(/C=C/C(=O)OCC(=O)NCc2ccco2)ccc1OCC#N
    0, 3%, -2.9%, 2%
> Cc1ccc(C2=NN(CC(=O)NCCC(C)C)C(=O)CC2)cc1
    nt, -1%&-5%, -0.8%, -3%
> CC(C)(CC1(C)NC(=O)NC1=O)OCc1ccccc1 (configuration not stated)
    nt, nt, 0.0%, -20%
> CCc1ccc(NC(=O)c2noc3c2CCc2ccccc2-3)cc1
    1, -12%, ?, 2%
> O=C(O)CCC(=O)N1CCc2cc(S(=O)(=O)N3CCC(Cc4ccccc4)CC3)ccc21
    -8, -6%, -1.4%, 23%
> COc1ccc(/C=N/Nc2nc(-c3ccc(C)cc3)c(NC(C)=O)s2)cc1OC
    -6, 4%, 0.0%, -7%
> O=C(Nc1ccncc1)c1ccc2c(c1)C(=O)N(CC1CCCO1)C2=O (configuration not stated)
    -2, 1%, -1.0%, 3%

Later entries
Below each compound: GLA inh pH 4.5, miR-21 FLuc, Rango-impB inh, Rango dissoc inh
> Nc1nnnn1/N=C/c1ccco1
    2, 4%, 3.2%, 0%
> Cc1cccc(NC2=Nc3ccccc3N3C2=Nc2c(c(C)nn2-c2ccccc2)C3c2ccc(O)c(O)c2)c1 (configuration not stated)
    -2, 5%, ?, ?
> CCN(CC(=O)NC(C)(C)C)C(=O)CCl
    0, 3%, -0.4%, 0%
> O=C(/C=C/c1ccccc1)Oc1cccc2cccnc12
    -19, -1%, -0.6%, 5%
> C=C(C)CNC(=S)Nc1ccc(S(=O)(=O)Nc2cnc3ccccc3n2)cc1
    -8, -6%, 2.9%, 23%
> COC(=O)N/N=C1/C/C(=N\NC(=O)OC)c2ccccc21
    4, 1%, 0.4%, -1%
> CCCCSc1nc(C)cc(SCC(=O)N/N=C/c2cccc(OC)c2O)n1
    3, 22%, ?, ?
> O=C(O)C1CCCCC1C(=O)Nc1nc(-c2ccc(Cl)s2)cs1 (configuration not stated)
    6, -10%, -3.8%, 16%
> O=C(Nc1ccccc1Cl)NC1(C(=O)NCc2ccncc2)CCCCC1
    nt, -1%, 4.1%, -20%
> COc1ccc(C(=O)COC(=O)CN2C(=O)NC3(CC(C)CC(C)(C)C3)C2=O)c(OC)c1 (configuration not stated)
    nt, nt, -1.9%, -4%
> Cc1ccc(S(=O)(=O)NC(Cc2ccccc2)C(=O)O)cc1C (configuration not stated)
    nt, -6%, 2.8%, 11%
> Cc1cccc(N(C(=O)c2csnn2)C(C(=O)NCc2ccccc2)c2ccc(C)o2)c1 (configuration not stated)
    nt, 8%, -0.6%, -15%
> COc1ccccc1Nc1ccc(NC(=O)c2cccc([N+](=O)[O-])c2C)cc1
    nt, 16%, 0.2%, -4%
> CCc1c(C)c2cc(Cl)c(O)c(CN(CC)CC)c2oc1=O
    ?, -4%, ?, ?
> COC(=O)[C@@]1(Cc2ccccc2)[C@H]2C(=O)N(C)C(=O)[C@H]2[C@H]2CN=C(SC)N21
    nt, nt, 3.4%, -11%

Other results follow.
Below each compound: GLA inh pH 4.5, miR-21 FLuc, Rango-impB inh, Rango dissoc inh
> O=C(Nc1cccc([N+](=O)[O-])c1)c1ccc2ccccc2c1O
    -5, -38%, -0.3%, 0%
> COc1cc(OC)cc(-c2c(C#Cc3ccsc3)c3cc(-c4cc(F)cc(F)c4)ccc3n2C)c1
    nt, nt, 0.7%, -2%
> O=C1CSC(c2ccco2)N1 (configuration not stated)
    4, -8%, -3.8%, -11%
> CC1(C)Nc2ccccc2C(=O)N1NS(=O)(=O)c1ccccc1
    9, -14%, 3.7%, -16%
> O=C(NC1CC1)c1ccc(S(=O)(=O)NCC2CCCCC2)cc1
    12, -7%, ?, -1%
> CSc1ccc(CN2CCC(C(=O)NCc3ccc(C)cc3)CC2)cc1
    5, -1%, 1.2%, 9%
> NC(=O)C1CCN(C(=O)c2cn(-c3ccccc3)nc2-c2cccnc2)CC1
    nt, nt, 0.3%, 8%
> Cc1cc(OCC(=O)NCc2ccccn2)c2c(C)c(Cc3ccccc3)c(=O)oc2c1
    nt, 1%, 3.7%, 42%
> CC(=O)CSc1nsc(SCC(C)=O)c1C#N
    1, -20%, 0.6%, -15%
> CCOc1ccc(S(=O)(=O)N(CC)CC(=O)NCc2ccccn2)cc1C
    nt, -3%, -0.1%, 7%
> Cc1ccc(C)c(NC(=O)CN(C)C(=O)c2ccc(Cl)nc2)c1
    nt, 1%, 4.6%, 2%
> Cc1ccc(S(=O)(=O)N2CCN(C(=O)CN3CCN(c4ccc(O)cc4)CC3)CC2)cc1
    nt, nt, -0.2%, 28%
> O=C(c1ccccc1NS(=O)(=O)c1ccc(F)cc1)N1CCOCC1
    nt, 1%, -0.1%, 18%
> CCc1c(C)[nH]n(CCC#N)c1=O
    3, -1%, -0.1%, 12%
> CC(O)CNC(=S)Nc1ccccc1 (configuration not stated)
    -3, 2%, -3.2%, -7%

Carrying on.
Below each compound: GLA inh pH 4.5, miR-21 FLuc, Rango-impB inh, Rango dissoc inh
> c1ccc(-c2ccc(OCCN3CCOCC3)cc2)cc1
    nt, -32%, -4.6%, 3%
> CC(C)Sc1nc(N)nc2c1ncn2C1OC(CO)C(O)C1O (configuration not stated)
    nt, nt, -1.9%, 0%
> CCCCN(CCCNC(=O)CN1C(=O)COc2ccccc21)c1ccccc1
    -12, 9%, 1.0%, -12%
> Cc1cc(O)cc(=O)n1C
    -3, 1%, -1.7%, 1%
> Cc1cc(C(=O)N(Cc2nnc(-c3ccc(Cl)cc3)o2)C(C)C)c2ccccc2n1
    nt, nt, 0.4%, 4%
> COc1ccc(C)cc1NC(=O)CSc1nnc(CC(=O)Nc2cccc(C(F)(F)F)c2)n1C
    4, -1%, 1.3%, -13%
> Cc1[nH]c2ccccc2c1C(=O)COC(=O)c1ccc2c(=O)n3c(nc2c1)CCC3
    2, 1%, 1.6%, -8%
> Cc1ccc([N+](=O)[O-])cc1NC(=O)c1cccs1
    4, 0%, 0.2%, -15%
> Oc1cccc(Nc2ncnc3c2oc2ccccc23)c1
    nt, -105%, -3.4%, 0%
> Cn1c(N2CCOCC2)c(/C=N/OC(=O)c2ccc(F)cc2)c2ccccc21
    -6, ?, 3.8%, 0%
> Cc1ccc(S(=O)(=O)N2CCC(C(=O)N(C)C3CCS(=O)(=O)C3)CC2)cc1 (configuration not stated)
    3, 1%, 0.2%, 1%
> NNC(=O)Cn1c2ccccc2c2ccccc21
    3, -2%, 0.7%, 4%
> CCn1c(C(=O)NCc2cccnc2)cc2sc(Cl)cc21
    -3, -18%, 6.0%, 5%
> CCCN(CC(=O)Nc1ccccc1C)C(=O)c1ccc(Cl)c(S(=O)(=O)N2CCCC2)c1
    nt, nt, 0.5%, -3%
> Cc1ccc(S(=O)(=O)Nc2c(C)n(C)n(-c3ccccc3)c2=O)cc1C(=O)OCC(=O)N1CCCC(C)C1 (configuration not stated)
    0, 0%, 0.6%, -14%
> Cc1cccc(NS(=O)(=O)c2c(C)noc2C)c1
    1, -4%, -2.3%, 4%
